Screens from PubChem BioAssay.
SARS PLP yeast – blocks SARS-CoV papain-like protease in a yeast assay; AID 485353; Potency, µM (doses to about 32.9 µM), for the others: top-dose activity, positive = growth rescue; 0.19% of 330,000 active; S. cerevisiae expressing SARS-CoV PLpro, growth rescue; control for the full effect not named in the record; note: 0% is about no effect; nearly all actives have a fitted effect of over 55% in size; growth read by luminescence after 48 h
Cruzain Triton – inhibitors of Trypanosoma cruzi cruzain with detergent. 0.43% of 200,000 active. AID 1478. P25779. Potency, µM, without a hit: max response, negative = inhibition, hits mostly inhibitors. purified cruzain, Z-FR-AMC fluorescence, 0.01% Triton; active = well fitted curve in the direction sought with a large enough effect; inconclusive = small, poorly fitted or top-dose-only effect, or another doubt; inactive = no such curve, though single readings can be large; an effect the other way counts as inactive or inconclusive;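 note: plate controls were neutral wells for no effect and buffer without enzyme for full effect; nearly all actives have a fitted effect of over 40% in size; top concentration of the series not given in the record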
Target sequence (P25779 123-467 limits assumed): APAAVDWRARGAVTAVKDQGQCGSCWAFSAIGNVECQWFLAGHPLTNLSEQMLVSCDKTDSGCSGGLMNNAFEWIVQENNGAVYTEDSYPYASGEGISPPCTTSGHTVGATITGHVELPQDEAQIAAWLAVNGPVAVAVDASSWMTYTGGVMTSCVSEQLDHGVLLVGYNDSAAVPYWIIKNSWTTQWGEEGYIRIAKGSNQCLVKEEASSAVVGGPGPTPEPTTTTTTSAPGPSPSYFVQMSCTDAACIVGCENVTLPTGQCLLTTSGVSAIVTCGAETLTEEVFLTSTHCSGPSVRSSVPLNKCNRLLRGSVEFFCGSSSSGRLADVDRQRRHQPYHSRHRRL
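Enzyme 1.5 nM, Z-FR-AMC 2 uM, NaOAc 100 mM pH 5.5, DTT 5 mM, Triton X-100 0.01%; 15 min RT compound preincubation; kinetic ex360/em450, 60 s delta.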
Marburg entry inh – blocks Marburg virus binding to or entry into cells. AID 540276. 1.8% of 300,000 active. Potency, µM (highest dose often 37.8 µM), without a hit: at the highest dose activity change, negative = inhibition, actives largely listed as inhibitors. Marburg virus pseudotyped entry inhibition, cell reporter; control for the full effect not named in the record; about a third of the inactives were read at about 46 µM; active = well fitted inhibition curve with a large enough effect; inconclusive = small, poorly fitted or top-dose-only effect, or effect the other way; inactive = flat fitted curve, though single readings scatter; tested in HEK293 cells; about a fifth of its hits are not listed in these tables; note: % is set by controls: 0 for no effect and ±100 for the full control effect; luciferase read-out
NS1 function inh – inhibitors of influenza NS1 protein function; Potency, µM (doses to about 46.1 µM), for inactives: at the top dose activity, positive = more growth; 0.4% of 270,000 active; S. cerevisiae slowed by influenza A NS1, growth recovery by OD600; note: actives are rising curves; nearly all actives have a fitted effect of over 50% in size
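Recovery from NS1-induced slow growth read by OD600 in budding yeast switched to galactose assay medium (pH 6.0, -URA) at 1:100 dilution. Compound 23 nl per well; the matching strain lacking NS1 serves as control.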
LASV entry inh – inhibitors of Lassa virus binding or cell entry; Lassa virus pseudotype entry inhibition, cell reporter; control for the full effect not named in the record; Potency, µM (doses to about 37.9 µM), for the others: top-dose activity change, negative = inhibition, most hits filed as inhibitors; 1.2% of 300,000 active; active means well fitted inhibition curve with a large enough effect; inconclusive means small, poorly fitted or top-dose-only effect, or effect the other way; inactive means flat fitted curve, though single readings scatter; tested in HEK293 cells; note: % is set by controls: 0 for no effect and ±100 for the full control effect; nearly all actives have a fitted effect of over 50% in size; luciferase read-out
2A StopGo – FMDV 2A StopGo reporter, luciferase signal. human cells with a luciferase reporter of 2A StopGo recoding; control for the full effect not named in the record. Potency, µM (highest dose often 57.9 µM), without a hit: at the highest dose signal change, negative = less light. 1.2% of 410,000 active. AID 1159524; active = well fitted falling curve with a large enough effect; inconclusive = small, poorly fitted or top-dose-only effect; inactive = no such curve, though single readings can be large or run the other way; tested in HEK293T cells; note: % is set by controls: 0 for no effect and ±100 for the full control effect; nearly all actives have a fitted effect of over 45% in size; luciferase light after 4 h
Cruzain noTriton – cruzain (T. cruzi) inhibition without detergent. P25779. purified cruzain, Z-FR-AMC fluorescence, no detergent. Potency, µM, for the others: max response, negative = inhibition, usual class: inhibitors. 2.3% of 200,000 active. AID 1476; active = well fitted curve in the direction sought with a large enough effect; inconclusive = small, poorly fitted or top-dose-only effect, or another doubt; inactive = no such curve, though single readings can be large; an effect the other way counts as inactive or inconclusive;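 note: plate controls were enzyme without inhibitor for no effect and buffer without enzyme for full effect; nearly all actives have a fitted effect of over 40% in size; top concentration of the series not given in the record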
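Detergent-free condition (0.00005% Triton X-100) in acetate buffer pH 5.5 with DTT. 1.5 nM enzyme and compound were pre-mixed 15 min, then 2 uM Z-FR-AMC substrate added; reaction progress from fluorescence change between first and third reads (60 s).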
RE007 growth inh – less growth of the S. pombe RE007 Vpr strain; 0.21% of 360,000 active; Potency, µM (titrated, usually from 92.2 µM), for the others: at the highest dose activity change, negative = less growth; S. pombe RE007 Vpr strain, BacTiter-Glo ATP luminescence, 24 h; control for the full effect not named in the record; active = well fitted falling curve with a large enough effect; inconclusive = small, poorly fitted or top-dose-only effect; inactive = no such curve, though single readings can be large or run the other way;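 note: % is set by controls: 0 for no effect and ±100 for the full control effect; nearly all actives have a fitted effect of over 50% in size; the assay follows cell death caused by Vpr and the record does not say whether a fall means rescue or toxicity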
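Fission yeast strain RE007, carrying one chromosomally integrated HIV-1 vpr copy, was seeded at OD 0.01 in PMG+AL medium with 23 nL pinned compound. After 24 h at 30 °C and 99% humidity, viability was read by BacTiter-Glo luminescence.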
The depositor's hits bear a star; u = inconclusive; x = not tested or not shown; & = joins results of further samples; [ ] = remark or other dose. Unless noted, calls come from the whole dose curve; as a rule, active means well fitted rising curve with a large enough effect; inconclusive means small, poorly fitted or top-dose-only effect; inactive means no such curve, though single readings can be large or run the other way. Potency is the fitted concentration of half-maximal effect.

SMILES	SARS PLP yeast	Cruzain Triton	Marburg entry inh	NS1 function inh	LASV entry inh	2A StopGo	Cruzain noTriton	RE007 growth inh
Cc1ccc(C)c(NS(=O)(=O)c2ccc3c(c2)NC(=O)CO3)c1	-3.7%	x	-4.9%[46.1 µM]	2.6%	u	8.9%	x	1.9%
Cc1[nH]c2ccccc2c1CCNC(=O)c1ccc2nccnc2c1	6.8%	x	11.7%	7.5%	u	2.2%	x	-5.3%
Cc1nnc2sc(-c3cccc(NC(=O)c4cccnc4)c3)nn12	-2.9%	1.4%	-20.3%	0.1%	4.8%	-1.5%	-1.1%	-3.5%
O=C1/C(=C\c2ccc(Br)o2)Cc2ccccc21	0.7%	-10.7%	2.6%	-7.8%	u	73.4%[activator]	5.3%	-15.9%
COc1ccc(CCNC(=O)C2CCCN(S(=O)(=O)N3CCCCCC3)C2)cc1OC (stereo not given)	15.0%	x	x	-3.0%	x	-14.4%	x	3.1%
Cc1ccc2cc(CN(Cc3cccs3)Cc3nnnn3C(C)(C)C)c3nnnn3c2c1	-2.7%	-3.4%	x	-4.3%	x	x	-5.2%	x
CC1=NOC(=O)/C1=C/c1ccc(O)c(Cl)c1	-0.8%	x	4.1%[46.1 µM]	-4.8%	12.9%[46.1 µM]	17.8µM*	x	-8.7%
COc1ccc(Cl)cc1NC(=O)c1sc2nc(-c3ccc(OC)c(OC)c3)ccc2c1N	x	-0.6%	-14.2%[46.1 µM]	x	18.9%[46.1 µM]	21.1%	12.7%	x
Cc1n[nH]c(=O)nc1NCCc1ccccc1	2.5%	2.1%	8.8%	5.9%	2.2%	-12.8%	1.4%	-14.5%[3.69 µM]
CCC(C)C(NC(N)=O)C(=O)Nc1ccc(OCc2ccccc2)cc1 (stereo not given)	-0.8%	x	x	-9.6%	x	5.9%	x	50.9%
CCOc1ccccc1NC(=O)NC1(C(=O)NCC2CCCO2)CCCCC1 (stereo not given)	-0.5%	x	u	9.6%	23.4%	6.1%	x	22.8%
COc1cc(NS(=O)(=O)c2ccc(NC(=O)c3ccc(C)o3)cc2)nc(OC)n1	0.5%	-7.1%	-0.7%	u	-19.1%[14.3 µM]	27.2%	-8.8%	-9.9%
CCCCC(=O)Nc1ccc(C(=O)N2CCCC(C(=O)OCC)C2)cc1 (stereo not given)	7.4%	-2.7%	-0.3%	u	-5.6%	0.9%	-12.4%	10.0%
COc1ccc(-n2c(SCC(N)=O)nc3c(oc4ccccc43)c2=O)cc1	x	-1.8%	-2.0%[46.1 µM]	x	x	0.0%	-4.6%	x
Cc1cccc2cc(CN(CCCO)C(=O)Nc3ccc(Cl)cc3)c(=O)[nH]c12	25.2%	-3.7%	7.0%	-3.4%	1.3%	u	19.4%	-7.6%
COc1cc(C(=O)Nc2cccc(-c3nncn3C)c2)cc(OC)c1OC	-2.5%	4.8%	10.6%	-4.4%	2.7%	31.3%[activator]	-4.7%	0.3%
Cc1cc(NS(=O)(=O)c2ccc(NC(=O)COc3ccccc3C(C)(C)C)cc2)no1	2.7%	x	-3.6%	u	-10.0%	-16.7%	x	0.7%
C=CCN(C(=O)Nc1ccc(Cl)cc1)C1CC(=O)N(c2ccc(OC)cc2)C1=O (stereo not given)	-0.8%	-1.0%	-19.1%	-3.3%	-55.6%	-19.1%	-10.0%	-7.8%
CSC1=C(C#N)C(C)C2=C(CC(C)(C)CC2=O)N1 (stereo not given)	-1.1%	-1.0%	27.7%	u	-6.1%	u	0.4%	7.3%
Cc1nnc(N2CCC(C(=O)NC3CCC(C)CC3)CC2)c2nn(-c3ccc(Cl)cc3)c(C)c12 (stereo not given)	4.1%	-0.7%	x	-7.5%	10.3%[46.1 µM]	-13.4%&-7.3%	-4.4%	-2.9%
COC(=O)CC1(C(=O)OC)Oc2ccccc2C(=O)N1c1ccc(F)cc1F (stereo not given)	x	x	-20.1%	x	-1.8%	-4.1%	x	-11.3%
Cc1ccn2cc(CNS(=O)(=O)c3cccs3)nc2c1	3.5%	x	11.6%[46.1 µM]	7.1%	14.5%[46.1 µM]	33.0%[activator]	x	-16.9%
COc1ccc(NC(=O)CCCn2nc(C)c3c(C)n(-c4ccccc4)nc3c2=O)cc1	2.1%	x	x	9.1%	x	-17.1%	x	-3.0%
COc1ccc(NC(=O)CSc2nnnn2-c2ccc(OC)cc2)cc1	1.1%	1.4%	-0.9%	u	-2.9%	-16.3%	-1.1%	11.1%
O=c1nc(Nc2ccccc2)oc2ccccc12	-7.3%	x	-27.5%[46.1 µM]	-4.1%	-9.4%	54.9%[activator]	x	-0.8%
CCN(CC)CCC(=O)N1c2ccccc2Sc2ccc(NC(=O)OC)cc21	-22.7%	x	x	-53.0%	x	-5.5%	x	-21.5%
CCn1c(SCC(=O)N2CCc3ccccc32)nc2c(c1=O)SC(C)C2 (stereo not given)	-10.2%	-1.3%	x	-54.2%	x	-26.1%	-0.1%	4.1%
COc1cc(OC)c(NC(=O)C2CCN(S(=O)(=O)c3c(C)noc3/C=C/c3c(C)cc(C)cc3C)CC2)cc1Cl	x	0.2%	x	x	28.1%[46.1 µM]	-10.3%	-5.7%	x
Cc1nc(-c2ccccn2)nc(SCC(=O)N2CCOCC2)c1Cl	-0.3%	x	x	u	x	3.4%	x	2.8%
COc1ccc(/C=C(/NC(=O)c2ccco2)C(=O)Nc2cccc(C(=O)O)c2)cc1	0.6%	x	13.0%[46.1 µM]	8.8%	14.9%	13.0%	x	-7.5%
COCCN(C(=O)CCC(=O)Nc1cc(C)on1)C(C(=O)NC1CCCC1)c1ccccc1C (stereo not given)	0.8%	x	17.6%[46.1 µM]	-2.7%	22.6%[46.1 µM]	24.3%	x	13.7%
COc1ccc(NC(=O)c2sccc2-n2cccc2)cc1	-3.2%	x	-20.5%	x	9.6%	-17.7%	x	-20.8%
CC1CCC(C(C)C)C(OC(=O)CSc2nc(N)cc(=O)[nH]2)C1 (stereo not given)	-3.6%	1.6%	-6.2%	8.91µM*	4.3%	u	u	9.8%
Cc1cc(C)nc(N2CCN(c3nc(C)cc(C)n3)CC2)n1	-0.9%	3.2%	x	-10.2%	x	x	6.3%	x
CC(NCc1cccnc1)c1ccccc1 (stereo not given)	-9.5%	x	7.3%	8.4%	-23.6%	-5.2%	x	3.9%
CCN1C(=O)c2cccc3c(S(=O)(=O)Nc4c(C)n(C)n(-c5ccccc5)c4=O)ccc1c23	10.6%	-0.5%	1.3%&1.3%	3.3%	6.6%	-14.6%	-4.7%	2.1%
O=C(c1nn2c(C(F)(F)F)cc(-c3ccccc3)nc2c1Cl)N1CCOCC1	-4.2%	0.1%	-9.2%&-9.2%	-12.6%	-9.6%	-16.1%	-4.5%	-12.5%
O=C(NC1CCN(Cc2ccccc2)CC1)c1cccc(S(=O)(=O)Nc2ccc(Br)cc2)c1	3.3%	x	u	x	u	-19.7%	x	-19.3%
Cc1ccccc1OCC(=O)NNC=O	-3.1%	x	16.4%[46.1 µM]	x	-2.2%	-5.6%	x	-9.4%
Oc1ccc(Nc2ncnc3scc(-c4ccccc4)c23)cc1	-12.4%	-1.8%	u	6.0%	u	u	-14.7%	-0.1%
O=C(N/C(=C\c1ccc(Br)cc1)C(=O)N1CCOCC1)c1ccccc1Cl	15.6%	x	19.7%	-3.6%	1.2%	-15.9%	x	-5.2%
O=C(CCSc1nc(-c2ccco2)cc(C(F)(F)F)n1)N1CCCc2ccccc21	-15.8%	-26.3%	u	-34.7%	-2.6%	u	u	22.4%
CCN(CC)S(=O)(=O)c1ccc(Cl)c(NC(=O)COc2ccc3c(C)cc(=O)oc3c2)c1	-1.1%	-1.0%	-10.4%	2.6%	u	-10.8%	-17.1%	3.0%
C=CCNC(=S)NCCCCC1NC(=S)N(CC=C)C1=O (stereo not given)	u	-4.2%	8.5%[46.1 µM]	5.9%	-21.7%	2.7%	1.8%	-9.2%
COC(=O)[C@H](CC(C)C)NC(=O)Nc1ccc2c(c1)OCCO2	-6.6%	3.0%	2.3%	-6.3%	29.8%	3.4%	6.2%	17.2%
CCN1CCN(c2ccc(S(=O)(=O)N3CCOCC3)cc2NC(=O)c2ccc(Cl)cc2Cl)CC1	0.8%	x	u	x	-0.4%	-15.5%	x	10.2%
O=S(=O)(NN=Cc1ccc(O)cc1O)c1cc(Cl)c(Cl)cc1Cl	x	x	u	x	4.4%	91.3%[activator]	x	0.8%
O=C(Nc1cc(C(F)(F)F)ccc1-n1cncn1)c1ccc(F)cc1Cl	-0.6%	x	-2.4%	x	1.9%	-5.8%	x	-9.6%
CCN(CCO)C(=O)C(c1ccccc1)c1ccccc1	-10.3%	-1.7%	-19.5%	6.4%	13.3%	-20.4%	-8.2%	4.4%
COc1cccc(C(=O)NNC(=O)Cc2cccs2)c1	0.3%	x	4.8%[46.1 µM]	6.6%	-1.0%	22.3%	x	-5.0%
CCOc1ccc(S(=O)(=O)NCCC(=O)NC2CCC(C)CC2)cc1 (stereo not given)	-9.3%	x	u	x	1.0%[46.1 µM]	5.1%	x	-8.4%

3 entries already listed, ordered by length of the SMILES, smallest number first:
SMILES	SARS PLP yeast	Cruzain Triton	Marburg entry inh	NS1 function inh	LASV entry inh	2A StopGo	Cruzain noTriton	RE007 growth inh
COc1cccc(C(=O)NNC(=O)Cc2cccs2)c1	0.3%	x	4.8%[46.1 µM]	6.6%	-1.0%	22.3%	x	-5.0%
O=C(Nc1cc(C(F)(F)F)ccc1-n1cncn1)c1ccc(F)cc1Cl	-0.6%	x	-2.4%	x	1.9%	-5.8%	x	-9.6%
CCN1CCN(c2ccc(S(=O)(=O)N3CCOCC3)cc2NC(=O)c2ccc(Cl)cc2Cl)CC1	0.8%	x	u	x	-0.4%	-15.5%	x	10.2%
